HSD17B inh: blocks hydroxysteroid 17-beta dehydrogenase activity; Q99714; recombinant HSD17B10, NADH fluorescence kinetic; many of its hits are not listed in these tables; Potency, µM (highest dose often 57.1 µM), for inactives: at the top dose activity change, negative = inhibition, hits mostly inhibitors; 75,000 compounds, 7.6% hits; AID 893; active = well fitted inhibition curve with a large enough effect; inconclusive = small, poorly fitted or top-dose-only effect; inactive = no such curve, though single readings can be large or run the other way;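 note: the protocol describes HADH2 (HSD17B10) and not the HSD17B4 of the title; nearly all actives have a fitted effect of over 70% in size; most hits overshoot -100% by far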
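Enzyme plus compound, 15 min room temperature; substrate mix added (NAD+ 1 mM, beta-hydroxybutyryl-CoA 90 uM final); plates read kinetically for NADH fluorescence. HADH2 was His-tagged, E. coli-derived, 20 nM.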
* marks the source's active call; other numbers are inactive results; ? = inconclusive; & = joins results of further samples; [ ] = dose if it differs, or a comment. % is set by controls: 0 for no effect and ±100 for the full control effect; potency is the fitted concentration of half-maximal effect. A portion of the library; count on the stated rates, not on these rows.

mol | HSD17B inh
c1cc(-c2nnc(-c3ccncc3)o2)ccn1 | 3%
CC(CCc1ccccc1)NC(=O)C1CCCN(c2nnc(-n3cccc3)s2)C1 (stereo not drawn) | -15%
Cc1nn(CC(=O)O)c2ccccc12 | 3%
COc1ccc(NC(=O)CN2CCN(c3ccc(F)cc3)CC2)cc1Cl | -6%
COC(=O)[C@@H](NC(=O)NCc1cccc(OC)c1)C(C)C | 8%
CC(=O)N1CCN(Cc2nc3cc(NS(C)(=O)=O)ccc3n2C)CC1 | -7%
Cn1c(SCC(=O)Nc2ccc3c(c2)OCO3)nnc1-c1cnccn1 | ?
CSCCC(NC(=O)c1ccco1)C(=O)O (stereo not drawn) | 5%
Cn1c(C(=O)Nc2ccc3c(c2)OCCO3)cc2c(=O)n(C)c3ccccc3c21 | ?
Cc1ccc(NC(=O)CN2CCCCCC2)c(Br)c1 | -9%
C/C(CCC(=O)OC[C@@H]1O[C@H](C#Cc2ccccc2)C=C[C@@H]1Oc1ccc(C)cc1)=N/O[C@@H](C)c1cn([C@H]2COC[C@H]2O)nn1 | -1%[11.4 µM]
CCCCc1nccn1CCn1ccnc1CCCC | 4%
COc1ccc(CC(=O)Nc2nc(C)cs2)cc1OC | -8%
O=C(O)C1CCCCC1C(=O)NCCc1ccncc1 (stereo not drawn) | 12%
COc1ccc(N=C2SC(CC(=O)Nc3ccccc3)C(=O)N2CC2CCCO2)cc1 (stereo not drawn) | 6%
Cc1nc(NCc2ccccc2)c2nc(-c3ccccc3)n(C3CCN(Cc4ccccc4)C3)c2n1 (stereo not drawn) | 32µM*
CCCCn1c(O)c(C(CC)=Nc2ccc3c(c2)CCC3)c(=O)[nH]c1=O | -2%
CCOC(=O)c1c(-c2ccc(C)o2)csc1NC(=O)CSc1nncs1 | ?
CCC(=O)Nc1cccc(-n2nnnc2SCC(=O)NCc2ccco2)c1 | -1%
Cc1cc(C(=O)NC2=NCCS2)cs1 | -2%
Cc1c(NC(=O)NC(C)N2C(=O)C3C4C=CC(C4)C3C2=O)c(=O)n(-c2ccccc2)n1C (stereo not drawn) | 0%
N[C@H](C(=O)O)c1nn[nH]n1 | -12%
CCn1c(SCC(=O)Nc2ccc3c(c2)OCO3)nnc1-c1ccccc1O | 3%
CCCCOc1ccc(NC(=O)Cn2c(=O)ccc3c(C)cc(C)nc32)cc1 | 31%[activator]
CCCCCCN(C(=O)CCCCCN1C(=O)NC(c2ccc3ccccc3c2)C(C(=O)OCc2ccccc2)=C1C)C(C(=O)NCCCC)c1ccc(OCC(=O)OC)c(C(=O)OC)c1 (stereo not drawn) | 0%
O=C(c1ccccc1F)N1CCN(S(=O)(=O)c2ccc3c(c2)OCCO3)CC1 | 8%
COC(=O)C1=C(C)N(Cc2ccccc2)[C@]23O[C@](C(=O)OC)(C(=O)N2C1c1ccccc1)C1CCCC(=O)C13 (stereo partly drawn) | 7%&-2%[11.4 µM]
O=C(OCc1nc2ccccc2s1)C1CCN(C2=NS(=O)(=O)c3ccccc32)CC1 | -6%
O=C(O)c1cc(Cl)c2ccccc2c1O | 32µM*
CCCn1c(N)c(C(=O)CSc2nc3ccccc3n2CCC#N)c(=O)n(C)c1=O | -8%
COc1ccc(CNc2ccc(S(N)(=O)=O)cc2)c(OC)c1OC | 2%
CC(C)NS(=O)(=O)c1ccc(CCC(=O)O)cc1 | 11%
CN1CCN(C(=O)c2ccc(N(Cc3ccc(Cl)cc3)S(C)(=O)=O)cc2)CC1 | -3%
CC(=O)Nc1ccc(S(=O)(=O)n2nc(-c3ccc(C)cc3)nc2N)cc1 | 11%
Cc1cc(=O)[nH]c(SCCOc2ccc(OC(C)C)cc2)n1 | 6%
O=c1c2c3c(sc2nc2n1CCC2)CCC3 | 2%
CCOC(=O)C1CCN(c2c(NCCN3CCCCC3C)c(=O)c2=O)CC1 (stereo not drawn) | 6%
c1ccc2c(c1)CCCn1nnnc1-2 | 17%
Cc1cc(NC(=O)CSc2nnc(CNc3cccc(C(F)(F)F)c3)n2Cc2ccco2)no1 | -5%
COc1nonc1NCn1nc(C)cc1C | 11%
O=C(c1nc2ccccc2s1)N1CCSCC1 | -3%
O=C(NC1CCN(C(=O)Nc2cccc(F)c2)CC1)C1CCCCC1 | 9%
Cc1ccc(S(=O)(=O)N2CCN(C(=O)COc3ccc(-c4nnco4)cc3)CC2)cc1 | 8%
COc1cccc(-n2c(Cc3cc(=O)[nH]c(=O)[nH]3)nnc2SCC(=O)NC2CCCC2)c1 | 5%
O=C(O)c1ccc(CN2C(=O)c3ccccc3S2(=O)=O)cc1 | -3%
Cc1cc2ccccc2n1CCNC(=O)C(C)(C)C | 5%
COC(=O)Nc1sc2c(c1C(=O)N1CCOCC1)CCC(C)C2 (stereo not drawn) | 25µM*
CCOC(=O)c1ccc2[nH]c(C)c(CCC(C)=O)c(=O)c2c1 | 25µM*
O=S(=O)(c1ccc2c(c1)OCCO2)N1CCC(n2nnc3cc(F)ccc32)CC1 | -3%
COc1ccc(NC(=O)CSc2nnc(-c3ccccc3Cl)n2Cc2ccco2)c(OC)c1 | -4%
O=C(NC1=NCCS1)C12CC3CC(C1)CC(C(=O)NC1=NCCS1)(C3)C2 | 11%
O=C(O)c1ccccc1NS(=O)(=O)c1cccc2cccnc12 | -7%
O=C(NCc1cccnc1)c1cc(-c2cccs2)on1 | 5%
CN(C)c1ccc(N/C=C/C(=O)c2ccccc2)cc1 | -2%
COc1ccc(-c2cc(C(=O)NC(C(=O)O)C(C)C)c(C)o2)cc1OC (stereo not drawn) | -7%
Cc1ccc(-c2cc(C(=O)OCC(=O)Nc3cc(C)on3)c3ccccc3n2)c(C)c1 | 3%
CCCOC(=O)c1[nH]c2c(c1C)C(=O)CC(c1ccc(OC)c(OC)c1)C2 (stereo not drawn) | -9%
O=C(c1ccc(F)cc1)N(Cc1ccccc1)C1CCS(=O)(=O)C1 (stereo not drawn) | 16%
CCOC(=O)Cc1[nH]nc2c1C(c1ccoc1)C(C#N)=C(N)O2 (stereo not drawn) | -5%
COc1ccccc1C1C(C#N)=C(N)Oc2cc(C)n(CCCn3ccnc3)c(=O)c21 (stereo not drawn) | -14%

Some of the entries so far, as labelled records:
SMILES: CN1CCN(C(=O)c2ccc(N(Cc3ccc(Cl)cc3)S(C)(=O)=O)cc2)CC1
  HSD17B inh: -3%

SMILES: Cn1c(C(=O)Nc2ccc3c(c2)OCCO3)cc2c(=O)n(C)c3ccccc3c21
  HSD17B inh: ?

SMILES: O=C(c1ccccc1F)N1CCN(S(=O)(=O)c2ccc3c(c2)OCCO3)CC1
  HSD17B inh: 8%

SMILES: O=C(O)C1CCCCC1C(=O)NCCc1ccncc1 (stereo not drawn)
  HSD17B inh: 12%

Returning to the listing, starting 2 compounds before the break.
mol | HSD17B inh
CCOC(=O)Cc1[nH]nc2c1C(c1ccoc1)C(C#N)=C(N)O2 (stereo not drawn) | -5%
COc1ccccc1C1C(C#N)=C(N)Oc2cc(C)n(CCCn3ccnc3)c(=O)c21 (stereo not drawn) | -14%
Cc1cc(C)cc(Oc2ccc(N)cc2)c1 | -15%
CC(=O)Oc1cccc(N2C(=O)c3ccc(C(=O)O)cc3C2=O)c1 | 2%
CCOC(=O)C1CCN(S(=O)(=O)c2cc(Cl)c(C)cc2OC)CC1 | 1%
COC(=O)CNC(=O)C1(C)C=CCN1C(=O)c1ccccc1 (stereo not drawn) | 9%
O=C(NCc1ccc2c(c1)OCO2)c1cccnc1 | 12%
C=C(NC(=O)C(=C)NC(=O)c1csc(C2=NC3c4csc(n4)C4NC(=O)c5csc(n5)C(C(C)(O)C(C)O)NC(=O)C5CSC(=N5)C(=CC)NC(=O)C(C(C)O)NC(=O)c5csc(n5)C3(CC2)NC(=O)C(C)NC(=O)C(=C)NC(=O)C(C)NC(=O)C(C(C)CC)NC2C=Cc3c(C(C)O)cc(nc3C2O)C(=O)OC4C)n1)C(N)=O (stereo not drawn) | 10%
COc1ccc(-c2noc(CCC(=O)NCCN(C)Cc3ccccc3)n2)cc1 | -4%
O=C(NC1CCCC1)C1CCN(S(=O)(=O)c2cccc3cccnc23)CC1 | -2%
COc1ccc(N(CC(=O)O)N=O)cc1 | 6%[11.4 µM]
CCOC(=O)N1CCN(c2nc3ccccc3nc2C(C#N)S(=O)(=O)c2ccc(C)cc2)CC1 (stereo not drawn) | ?
COC(=O)CNC(=O)C(C)NC(=O)OCc1ccccc1 (stereo not drawn) | 6%
O=C(Cn1nc(C(F)(F)F)c2c1CCC2)NCc1ccc(F)cc1 | -17%
CCc1ccc(S(=O)(=O)NCCc2cn3ccsc3n2)s1 | -4%
COc1cccc(N2CCN(CC(=O)Nc3nc4c(s3)CC(C)CC4)CC2)c1 (stereo not drawn) | 5%
CCOC(=O)c1sc2ncn(C(CC)C(=O)OCC)c(=O)c2c1C (stereo not drawn) | 1%
CCOc1nc(C)ccc1-c1noc(-c2ccccn2)n1 | 25µM*
COCCCn1c(SCC(=O)NCc2ccco2)nc2sc3c(c2c1=O)CCC3 | -6%
O=c1c2ccccc2nc(SCc2nc(-c3ccccc3)no2)n1-c1ccc(F)cc1 | 1%
CCn1cc(C2Nc3ccccc3C(=O)N2O)c(C)n1 (stereo not drawn) | -4%
Cc1nc([N+](=O)[O-])cn1-c1nc2ccccn2c1[N+](=O)[O-] | -2%[11.4 µM]
CCN1C(=O)c2cccc3c(S(=O)(=O)Nc4ccc(OC)cc4OC)ccc1c23 | -9%
Cc1cc(NC(=O)CSc2nc3ccsc3c(=O)n2Cc2ccccn2)n[nH]1 | 6%
CCOC(=O)CSc1nnc(NCC(=O)OC(C)C)c(=O)[nH]1 | -4%
CCCOP(=O)(c1ccc(N(C)C)cc1)C(O)c1ccncc1 (stereo not drawn) | 6%
Cc1nn(Cc2ccccc2)c2sc(C(=O)NCc3cccnc3)cc12 | 5%
COc1ccc(S(=O)(=O)N(CC(=O)Nc2ccc3c(c2)OCO3)c2ccccc2OC)cc1 | 3%
CCS(=O)(=O)N1CCCC(C(=O)NCCCOC)C1 (stereo not drawn) | -1%
Cc1onc(-c2c(Cl)cccc2Cl)c1C(=O)NCc1ccccn1 | 0%
COCCn1c(C)cc(C(=O)CSc2nc3ccccc3c(=O)[nH]2)c1C | ?
Nc1nnc(N2CCCCCC2)s1 | 5%
Cc1cc2nnc(SCC(=O)NCc3ccco3)n2c2ccccc12 | -5%
COc1ccc(/C(O)=C2\C(=O)C(=O)N(CCCN(C)C)C2c2ccccc2F)cc1Cl (stereo not drawn) | 6%
CCOCCCn1cnc2c([nH]c3cc(OC)ccc32)c1=O | 1%
Cc1ccc2c(c1[N+](=O)[O-])C(=O)c1ccccc1C2=O | -4%
Cc1cccc(NC(=O)c2cc3n(n2)C(C(F)(F)F)CC(c2ccc4c(c2)OCO4)N3)c1 (stereo not drawn) | 23%
Cc1cc(=O)n2nc(N3CCCC(C(=O)N4CCc5ccccc54)C3)sc2n1 (stereo not drawn) | -3%
COC(=O)c1nc2n(n1)C(c1ccccc1OC)C1=C(CCCC1=O)N2 (stereo not drawn) | 8%
COC(=O)C/C=C\[C@@H](C)[C@@H](/C=N\O[C@@H](C)c1cn([C@H]2COC[C@H]2O)nn1)NS(=O)(=O)c1ccc(C)cc1 | 2%[11.4 µM]
COc1cc2cc(C(c3nnnn3C3CCCC3)N3CCCCCC3)c(=O)[nH]c2cc1OC (stereo not drawn) | -15%
COc1cc(OC)cc(C(=O)N2CCN=C2SCc2cccnc2)c1 | 4%
COc1ccc(S(=O)(=O)n2nc(OC(=O)c3ccccc3)cc2N)cc1 | 0%
CCOC(=O)c1c(NC(=O)c2ccn(CC)n2)sc2c1CCCC2 | 32µM*
O=C(Nc1nc(-c2ccccc2)cs1)c1cccs1 | ?
O=C(c1ccco1)N1CCC2(CC1)CN(c1ncccn1)C2 | ?
Cc1ccc(OCc2nnc(SCC(=O)NCc3ccccc3)n2C)cc1 | 3%
CN(Cc1ccc(O)cc1)C1CCCCC1 | 4%
CC(=O)Nc1ccc(NC(=O)c2cccc(C(=O)OC(C)C)n2)cc1 | 0%
Cc1oc(CSCC2CCCO2)cc1C(=O)O (stereo not drawn) | -26%
CC(C)CN(C(=O)COC(=O)Cc1c[nH]c2ccccc12)C1CCS(=O)(=O)C1 (stereo not drawn) | 11%
O=C(O)CCC(=O)c1ccc2sc3ccccc3c2c1 | -12%[11.4 µM]
COc1ccc(NC(=O)N2CC3(CCN(C(=O)c4ccc(OC)cc4)CC3)C2)cc1 | -1%
CN(CCNC(=O)C1CCN(S(=O)(=O)N2CCOCC2)CC1)CCc1ccccc1 | 2%
Cc1cc(-n2c(C)cc(C(=O)COC(=O)CN=C3NS(=O)(=O)c4ccccc43)c2C)no1 | 0%
Cc1ccc(C)n1-n1cnc2sc(-c3ccccc3)cc2c1=O | -13%
CSCCC1(C(=O)O)NC(c2ccccc2O)C2C(=O)N(C(C)C)C(=O)C21 (stereo not drawn) | 5%
CC(NC(=O)C(CC(=O)OC(C)(C)C)NC(=O)OC(C)(C)C)C(N)=O (stereo not drawn) | -1%
CS(=O)(=O)N(CC(=O)N1CCN(c2ccccc2)CC1)c1cccc(Br)c1 | 43%[activator]
Fc1cccc(F)c1CN1CCN(c2ncccn2)CC1 | 0%
